High-throughput results deposited in PubChem BioAssay by National Center for Advancing Translational Sciences (NCATS).
2A StopGo: High Throughput Screening for Foot and Mouth Disease Virus Antivirals | 410,000 tested, 1.2% active | human cells with a luciferase reporter of 2A StopGo recoding; control for the full effect not named in the record | Potency, µM (highest dose often 57.9 µM), inactives show top-dose signal change, negative = less light; active = well fitted falling curve with a large enough effect; inconclusive = small, poorly fitted or top-dose-only effect; inactive = no such curve, though single readings can be large or run the other way; tested in HEK293T cells; also: % is scaled to controls: 0 for no effect and ±100 for the full control effect; nearly all actives have a fitted effect of over 45% in size; luciferase light after 4 h
RE007 growth inh: qHTS Assay for Inhibitors of the HIV-1 protein Vpr; S. pombe RE007 Vpr strain, BacTiter-Glo ATP luminescence, 24 h; control for the full effect not named in the record; Potency, µM (series often up to 92.2 µM), without a hit: at the highest dose activity change, negative = less growth; 360,000 tested, 0.21% active; active = well fitted falling curve with a large enough effect; inconclusive = small, poorly fitted or top-dose-only effect; inactive = no such curve, though single readings can be large or run the other way;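 also: % is scaled to controls: 0 for no effect and ±100 for the full control effect; nearly all actives have a fitted effect of over 50% in size; the assay follows cell death caused by Vpr and the record does not say whether a fall means rescue or toxicity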
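Fission yeast RE007 carrying one integrated HIV-1 vpr copy, seeded at OD 0.01 in PMG+AL medium with 23 nL pinned compound. Grown 24 h at 30 degrees; viability read by BacTiter-Glo luminescence after 5 min.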
Cruzain noTriton: qHTS Assay for Promiscuous and Specific Inhibitors of Cruzain (without detergent); Cruzipain (Trypanosoma cruzi), P25779; purified cruzain, Z-FR-AMC fluorescence, no detergent; Potency, µM, for inactives: max response, negative = inhibition, hits mostly inhibitors; 200,000 tested, 2.3% active; AID 1476, 2009;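 also: plate controls were enzyme without inhibitor for no effect and buffer without enzyme for full effect; nearly all actives have a fitted effect of over 40% in size; top concentration of the series not given in the record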
Target sequence (P25779 123-467 limits assumed): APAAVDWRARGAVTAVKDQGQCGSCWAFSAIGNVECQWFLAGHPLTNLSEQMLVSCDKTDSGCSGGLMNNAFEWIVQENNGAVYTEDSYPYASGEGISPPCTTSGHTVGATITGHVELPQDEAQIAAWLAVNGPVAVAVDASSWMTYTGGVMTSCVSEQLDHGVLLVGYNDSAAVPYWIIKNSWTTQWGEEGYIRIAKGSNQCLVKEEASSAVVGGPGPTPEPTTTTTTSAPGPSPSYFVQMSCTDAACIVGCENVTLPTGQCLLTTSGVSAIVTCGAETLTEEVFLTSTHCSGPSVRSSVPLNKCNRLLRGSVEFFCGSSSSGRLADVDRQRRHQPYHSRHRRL
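Purified cruzain at 1.5 nM, pre-incubated 15 min with compound at room temperature in 100 mM sodium acetate pH 5.5, 5 mM DTT, 0.00005% Triton X-100. Reaction started with 2 uM Z-FR-AMC; AMC fluorescence increase over 60 s gives rate.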
Cruzain inh Det: qHTS Assay for Promiscuous and Specific Inhibitors of Cruzain (with detergent) | purified cruzain, Z-FR-AMC fluorescence, 0.01% Triton | AID 1478, 2009 | 200,000 tested, 0.43% active | Potency, µM, inactives show max response, negative = inhibition, hits mostly inhibitors;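 also: plate controls were neutral wells for no effect and buffer without enzyme for full effect; nearly all actives have a fitted effect of over 40% in size; top concentration of the series not given in the record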
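Detergent-containing run (0.01% Triton X-100) in acetate buffer pH 5.5 with 5 mM DTT: enzyme at 1.5 nM final, 15 min compound preincubation at room temperature, then 2 uM Z-FR-AMC substrate. Activity taken as 60 s fluorescence increase at 360/450 nm.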
LASV entry inh: qHTS for Inhibitors of binding or entry into cells for Lassa Virus | AID 540256, 2011 | 300,000 tested, 1.2% active | Potency, µM (series often up to 37.9 µM), without a hit: at the top dose activity change, negative = inhibition, actives largely listed as inhibitors | Lassa virus pseudotype entry inhibition, cell reporter; control for the full effect not named in the record; active means well fitted inhibition curve with a large enough effect; inconclusive means small, poorly fitted or top-dose-only effect, or effect the other way; inactive means flat fitted curve, though single readings scatter; tested in HEK293 cells; also: % is scaled to controls: 0 for no effect and ±100 for the full control effect; nearly all actives have a fitted effect of over 50% in size; luciferase read-out
NS1 inh: qHTS Assay for Inhibitors of Influenza NS1 Protein Function; S. cerevisiae slowed by influenza A NS1, growth recovery by OD600; 270,000 tested, 0.4% active; Potency, µM (doses to about 46.1 µM), inactives show top-dose activity, positive = more growth; active means well fitted rising curve with a large enough effect; inconclusive means small, poorly fitted or top-dose-only effect; inactive means no such curve, though single readings can be large or run the other way; also: nearly all actives have a fitted effect of over 50% in size
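In this qHTS, NS1 from influenza A is expressed in budding yeast, where it slows growth. Cells are switched from glucose to 2% galactose medium (pH 6.0, -URA), treated with compound, and growth recovery is read at OD600.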
Marburg entry inh: qHTS for inhibitors of binding or entry into cells for Marburg Virus; Marburg virus pseudotyped entry inhibition, cell reporter; control for the full effect not named in the record; about a third of the inactives were read at about 46 µM; Potency, µM (titrated, usually from 37.8 µM), without a hit: at the highest dose activity change, negative = inhibition, most hits filed as inhibitors; 300,000 tested, 1.8% active; AID 540276, 2011; active = well fitted inhibition curve with a large enough effect; inconclusive = small, poorly fitted or top-dose-only effect, or effect the other way; inactive = flat fitted curve, though single readings scatter; tested in HEK293 cells; about a fifth of its hits are not listed in these tables; also: % is scaled to controls: 0 for no effect and ±100 for the full control effect; luciferase read-out
SARS PLpro yeast: qHTS of Yeast-based Assay for SARS-CoV PLP; S. cerevisiae expressing SARS-CoV PLpro, growth rescue; control for the full effect not named in the record; Potency, µM (top dose mostly 32.9 µM), for inactives: at the highest dose activity, positive = growth rescue; 330,000 tested, 0.19% active; AID 485353, 2010; active means well fitted rising curve with a large enough effect; inconclusive means small, poorly fitted or top-dose-only effect; inactive means no such curve, though single readings can be large or run the other way; also: 0% is about no effect; nearly all actives have a fitted effect of over 55% in size; growth read by luminescence after 48 h
* = called active by the depositor; ? = inconclusive; . = no result given; & = joins results of further samples; [ ] = another dose, or the depositor's remark. Unless noted, calls follow the shape of the dose curve; as a rule, active = well fitted curve in the direction sought with a large enough effect; inconclusive = small, poorly fitted or top-dose-only effect, or another doubt; inactive = no such curve, though single readings can be large; an effect the other way counts as inactive or inconclusive. Potency is read from the fitted curve at half-maximal effect.

SMILES	2A StopGo	RE007 growth inh	Cruzain noTriton	Cruzain inh Det	LASV entry inh	NS1 inh	Marburg entry inh	SARS PLpro yeast
C/C(=C\C(=O)Nc1nccs1)c1ccccc1	53%[activator]	-15%	3%	-4.4%	96%[14.3 µM]	-86%	17%	.
C1=C(c2ccccc2)Nc2ccccc2N=C1c1ccccc1	0%	-15%	3%	-5.5%	?	-28%	-9%	-23%
Cc1ccccc1Nc1cc(C(=O)NCc2ccco2)c2ccccc2n1	20%	8%	1%	-12%	-2%	7%	-30%	-12%
O=C(Nc1cccc(F)c1)c1cccnc1NCCc1ccccc1	-24%	?	-10%	-6.4%	-19%	-9%	-1%	-80%
Cc1ccc(C)c(-n2c(SCC(=O)NC(C(=O)O)C(C)C)nnc2-c2cccc(Cl)c2)c1 (stereo not given)	-8%	-6%	.	.	-2%	.	18%[46.1 µM]	0%
COC(=O)c1cnc(NNC(=O)c2ccc([N+](=O)[O-])cc2)nc1C(F)(F)F	-28%	-4%	.	.	?	4%	?	1%
Cc1nc2nc(-c3ccccc3)cc(=O)n2[nH]1	25%	4%	-3%	0.6%	-22%	-11%	22%	-6%
Cc1cc(N2CCN(S(=O)(=O)c3ccc4ccccc4c3)CC2)n2ncnc2n1	?	3%	.	.	-25%	0%	6%	2%
COc1ccc(C(O)Cc2nc3ccccc3n2C)cc1OC (stereo not given)	8%	-5%	-6%	-0.3%	-7%	-5%	-3%	-16%
CC(=O)N[C@@H](Cc1c[nH]c2ccccc12)C(=O)NC1CC1	-12%	5%	.	.	.	5%	.	1%
Cc1ccc2c(Cl)c(C)c(N3CCOCC3)nc2n1	-10%	-23%	.	.	11%[46.1 µM]	.	30%[46.1 µM]	.
Cc1ccc(N(Cc2ccccc2)C(=O)c2cccc(S(=O)(=O)N3CC(C)OC(C)C3)c2)cc1 (stereo not given)	34%[activator]	8%	.	.	?	.	?	4%
Cc1ccc2nc(-c3ccsc3)c(Nc3ccc(Cl)cc3)n2c1	-4%	.	20%	-5.2%	13%[46.1 µM]	.	2%[46.1 µM]	.
CCOC1(C(F)(F)F)NC(=O)N(Cc2ccc(OC)cc2)C1=O (stereo not given)	-10%	-1%	2%	4.8%	-9%	4%	13%	-7%
CCCCOc1ccccc1C1CC(=O)NC2=C1C(=O)CCC2 (stereo not given)	-27%	0%	-12%	3.4%	?	-35%	?	-1%
CN1CCN(NC(=O)c2cn(-c3ccccc3)nc2-c2cccc(Br)c2)CC1	-5%	10%	.	.	?	3%	?	-4%
COc1cc(C2CC(=O)N3CN(c4ccccc4C)CSC3=C2C#N)cc(OC)c1OC (stereo not given)	.	.	?	-13%	.	-15%	-1%	?
COc1ccc2cc3cc(C(=O)N4CCN(Cc5ccc6c(c5)OCO6)CC4)oc3nc2c1	22µM*	-11%	0%	32µM*	?	-60%	.	0%
COc1cccc(C2C(C(=O)c3sc(C)nc3C)=C(O)C(=O)N2CCN2CCOCC2)c1 (stereo not given)	-1%	13%	-2%	-1.2%	3%	7%	-10%	11%
C=CCCCCCCCCc1nc(SCC(=O)O)n[nH]1	-14%	-2%	.	.	8%	12%	2%[46.1 µM]	0%
Cn1c(CS/C(N)=N/N=C/c2ccccc2)c(Br)c(=O)n1-c1ccccc1	17%	-26%	32µM*	?	?	-24%	20%	?
COc1ccc(-c2cc(C(F)(F)F)c3c(N)c(C(=O)NCCSC)sc3n2)cc1	-12%	9%	.	.	-28%[46.1 µM]	-2%	2%[46.1 µM]	-1%
O=C(Nc1ccc(F)cc1)Nc1ccc(NC(=O)c2ccccc2O)cc1	-7%	-10%	.	.	22%	8%	3%	1%
CC(NC(=O)C1C2C=CC(C2)C1C(=O)O)c1ccccc1 (stereo not given)	-20%	8%	3%	5.1%	?	-1%	19%	4%
Fc1ccc(C2C3=C(Nc4ncnn42)c2ccccc2OC3c2ccncc2)cc1 (stereo not given)	-22%	-10%	4%	-8.9%	-20%	-6%	-11%	4%
COC(=O)[C@H](CC(C)C)NC(=O)NC1CCCCC1C (stereo not given in full)	-6%	-11%	-4%	-1.7%	-25%[14.3 µM]	-3%	3%	-1%
Cc1cc(-c2ccc(C)c(S(=O)(=O)NCCN3CCC(C)CC3)c2)on1	-2%	-7%	.	.	.	-9%	.	-1%
CSCC[C@H](NC(=O)CCNC(C)=O)c1nc2ccccc2[nH]1	-19%	-3%	0%	1.0%	14%	2%	?	1%
Cc1nc2nc(NC(=O)c3ccccc3F)[nH]n2c(=O)c1Cl	-20%	.	5%	1.3%	?	.	0%[46.1 µM]	.
Cc1c(C(c2ccccc2Br)c2c(C)n(C)n(-c3ccccc3)c2=O)c(=O)n(-c2ccccc2)n1C	-24%	25%	.	.	.	-6%	.	0%
Cc1cccc(Cc2nnc(CCC(=O)N(C)CCc3ccccc3)o2)c1	21%	-1%	.	.	2%[46.1 µM]	-16%	?	-2%
Cc1cccc2cc(C#N)c(SCCN3CCCCC3)nc12	-30%	14%	.	.	-1%	4%	?	.
O=C(COc1ccc2c(c1)CCC2)NCc1ccc(Cl)cc1	-11%	-5%	-5%	-6.1%	-23%	-7%	6%	0%
CCCCn1c(N)c(N(CC(C)C)C(=O)c2ccco2)c(=O)[nH]c1=O	15%	-4%	.	.	1%	.	-3%[46.1 µM]	8%
Cc1cccc2nc(-c3cccc(NS(=O)(=O)c4ccccc4)c3)cn12	11%	.	7%	-7.3%	0%[46.1 µM]	.	-11%[46.1 µM]	.
O=C1Nc2ccccc2C12OC1CCCCC1O2 (stereo not given)	.	4%	-8%	2.7%	-15%	12%	-2%	2%
CCOC(=O)N1CCC(Nc2c(NCCCN3CCN(c4ccc(OC)cc4)CC3)c(=O)c2=O)CC1	-24%	0%	.	.	.	2%&-2%	.	0%
Cc1cc(=O)oc2c(CN3CCN(CCO)CC3)c(O)ccc12	-6%	5%	.	.	1%	0%	2%	-1%
Cc1cccc(NC(=O)c2c(C)cc(=O)oc2C)n1	.	12%	?	7.1%	2%	3%	12%&12%	-3%
CCS(=O)(=O)N1CCN=C1SCc1ccc(F)cc1	-4%	7%	.	.	.	-2%	.	-3%
CCOc1ccc(N(C(=O)CNS(=O)(=O)c2ccccc2)C(CC)C(=O)NCc2ccco2)cc1 (stereo not given)	0%	1%	.	.	-30%	3%	-27%[46.1 µM]	0%
O=C(CCn1c(=O)c2cccn2c2cccnc21)NCc1ccc(Cl)cc1	2%	.	14%	-0.4%	3%[46.1 µM]	.	.	.
N#Cc1ccc(Sc2ccccn2)c([N+](=O)[O-])c1	-14%	80%	.	.	5%	0%	-13%	-1%
O=C1COc2ccc(NC(=O)N3CCN(c4ccc(F)cc4)CC3)cc2N1	-9%	10%	-1%	8.7%	-21%	1%	-12%	5%
COc1ccc(CCNC(=O)c2c3c(nc4ccccc24)C(=O)N(C2CCCCC2)C3)cc1OC	3%	.	16%	0.4%	-8%[46.1 µM]	.	.	.
O=c1[nH]c(=O)n(C2CC(O)C(CO)O2)cc1I (stereo not given)	-2%	14%	.	.	19%[46.1 µM]	.	19%	.
CCn1cc(S(=O)(=O)NCc2ccc3c(c2)OCO3)cn1	30%[activator]	-11%	.	.	1%[46.1 µM]	-3%	1%[46.1 µM]	-6%
CCc1cc2c(=O)c(-c3nc4ccccc4n3C)coc2c(CN2CCN(C)CC2)c1O	-19%	-6%	-2%	-1.2%	-4%	?	?	-1%
Fc1ccc2[nH]c3c(NCCN4CCOCC4)ncnc3c2c1	-24%	-11%	20µM*	?	-21%	-10%	-29%	-4%
CCN(CC)S(=O)(=O)c1ccc(-c2cn3cc(Cl)ccc3n2)cc1	25%	4%	.	.	10%[46.1 µM]	-7%	?	1%
NC(=O)c1nsc(C(=O)N(c2ccc(F)cc2)C(C(=O)NCC2CCCO2)c2ccc3ncccc3c2)c1N (stereo not given)	-8%	7%	.	.	4%	-22%	?	5%
CCOc1ccc2nc(N=Nc3c(O)[nH]c(=S)[nH]c3=O)sc2c1	-23%	8%	.	.	1%	.	-12%[46.1 µM]	2%
Cc1nn(-c2ccccc2)c2sc(C(=O)Nc3cccc(Br)c3)cc12	-22%	.	20µM*	-2.3%	-3%[46.1 µM]	.	14%[46.1 µM]	.
CCOC(=O)CNC(=O)CSc1nc(Cc2ccccc2)nc2ccccc12	-17%	2%	.	.	.	-5%	.	5%
CC1CN(C(=O)c2ccccc2)C(=Nc2cccc(S(=O)(=O)N(C)C)c2)S1 (stereo not given)	-2%	0%	3%	-0.5%	?	-7%	?	7%
C=C(C)[C@@H]1CC[C@]2(C(=O)O)CC[C@]3(C)[C@H](CC[C@@H]4[C@@]5(C)CC[C@H](O)C(C)(C)[C@@H]5CC[C@]43C)[C@@H]12	?	-4%	.	.	.	-4%	.	1%
Cc1ccc(F)cc1NC(=O)N1CCN(c2ccnc3cc(Cl)ccc23)CC1	?	0%	.	.	.	-7%	.	-5%
Cc1cccc(OCCn2ccnc2)c1C	-4%	20%	.	.	13%[46.1 µM]	2%	?	-1%
Cc1ccccc1OCc1nc2c3cnn(-c4cccc(F)c4)c3ncn2n1	-17%	.	-15%	-1.2%	-1%[46.1 µM]	.	?	.
CCN(CC)CCn1c2c(c(SCC(=O)NCc3ccccc3)nc1=O)CCC2	-5%	1%	.	.	3%	.	-31%	0%
Cc1cc(NCCN2CCOCC2)n2c(nc3ccccc32)c1C#N	-23%	-9%	10%	-1.5%	-5%	4%	-4%[46.1 µM]	-7%

Outcome played no part in choosing rows, and some 4.7% of all compounds hit somewhere here.
